StopGo FLuc: FMDV 2A StopGo reporter, firefly signal. AID 1745856. Potency, µM (series often up to 57.5 µM), inactives show top-dose signal change, negative = less light. 120,000 tested, 0.23% active. HEK cells with a luciferase reporter of 2A StopGo recoding; active = well fitted falling curve with a large enough effect; inconclusive = small, poorly fitted or top-dose-only effect; inactive = no such curve, though single readings can be large or run the other way; further: nearly all actives have a fitted effect of over 60% in size; overnight with compound
StopGo RLuc: lowers the Renilla signal of an FMDV 2A StopGo reporter | Potency, µM (series often up to 57.5 µM), for inactives: top-dose signal change, negative = less light | HEK cells with a luciferase reporter of 2A StopGo recoding | 120,000 tested, 0.32% active | AID 1745857; active means well fitted falling curve with a large enough effect; inconclusive means small, poorly fitted or top-dose-only effect; inactive means no such curve, though single readings can be large or run the other way; further: nearly all actives have a fitted effect of over 55% in size; overnight with compound
* marks the source's active call; other numbers are inactive results; u = inconclusive; [ ] = dose if it differs, or a comment. On the % scale 0 is the no-effect control and ±100 the full control effect; potency means the concentration at half of the fitted maximal effect.

canonical_smiles | StopGo FLuc | StopGo RLuc
Cc1ccc(C)c(S(=O)(=O)Nc2nc3ccccc3nc2Nc2ccc(F)cc2)c1 | 0% | 4%
COc1cccc(CNC(=O)C2CCN(c3nc4c(C)cc(C)cc4s3)CC2)c1 | 6% | 1%
Cc1ccc(C)c(OCC(=O)N2CCN(c3ncccn3)CC2)c1 | 3% | 2%
COc1ccc(-c2[nH]nc3nc(-c4cc(OC)c(OC)c(OC)c4)cc(C(=O)O)c23)cc1 | 19% | -4%
O=C(NC1CCS(=O)(=O)C1)c1cc2sccc2n1Cc1ccccc1Cl (centres undefined) | -15% | -3%
O=C(Nc1ccc(Cl)c(C(F)(F)F)c1)/C(=C/c1ccc(F)cc1)c1ccc(-c2ccccc2)cc1 | 7% | 7%
CCN(C(=O)Cn1c(=O)oc2cc(S(=O)(=O)N3CCCCCC3)ccc21)c1cccc(C)c1 | 14% | 0%
CCOC(=O)CCNCc1ccccc1 | 53%[activator] | 3%

(continued)
canonical_smiles | StopGo FLuc | StopGo RLuc
Cc1ccc(/C=C/C(=O)Nc2nc(-c3cccs3)ns2)cc1 | -5% | -12%
COC(=O)Cc1c(C)c2cc3c(c(C)c2oc1=O)OCN(CCc1ccc(F)cc1)C3 | 10% | 6%
COc1ccc(C(=O)OCCN(C)C2CN(Cc3cn(Cc4cccc(C)c4)nn3)S(=O)(=O)C2)cc1OC (centres undefined) | 0% | 0%
O=C(CSc1ncc(-c2ccc(Br)cc2)o1)NC1CCCCC1 | -6% | -13%
Cc1cccc(C2NC(=O)c3c(sc4c3CCN(C)C4)N2)c1O (centres undefined) | 91%[activator] | 7%
O=C(c1cc(S(=O)(=O)N2CCCC2)c[nH]1)N1CCN(c2cccc(Cl)c2)CC1 | 101%[activator] | -7%
CCCn1c(=O)c2sc(N3CCCC3)nc2n(CC(=O)NC2CCCCC2)c1=O | -2% | -4%
CC(C)(CNC(=O)Cc1ccccc1)CNC(=O)Cc1ccccc1 | -7% | 19%

The list goes on; it opens with the 4 that closed the last part.
canonical_smiles | StopGo FLuc | StopGo RLuc
Cc1cccc(C2NC(=O)c3c(sc4c3CCN(C)C4)N2)c1O (centres undefined) | 91%[activator] | 7%
O=C(c1cc(S(=O)(=O)N2CCCC2)c[nH]1)N1CCN(c2cccc(Cl)c2)CC1 | 101%[activator] | -7%
CCCn1c(=O)c2sc(N3CCCC3)nc2n(CC(=O)NC2CCCCC2)c1=O | -2% | -4%
CC(C)(CNC(=O)Cc1ccccc1)CNC(=O)Cc1ccccc1 | -7% | 19%
COc1ccc(NC(=O)CCNS(=O)(=O)c2cccc3nonc23)cc1 | -14% | 20%
O=C(CCCCCn1c(=O)[nH]c2ccccc2c1=O)N1CCN(c2ccc(Cl)cc2)CC1 | -22% | 8%
CC1CCC(C(C)C)C(OC(=O)COC(=O)c2ccc3c(c2)OCO3)C1 (centres undefined) | 8% | 7%
CCCNC(=O)NNC(=O)c1cn(C)c2ccccc12 | -4% | -7%[1.06 µM]
COc1ccc(-c2noc(CSc3nc4ccc(C)cc4[nH]3)n2)cc1 | -2% | -28%
CC(=O)c1ccc(OC(=O)c2ccccc2C)cc1 | 186%[activator] | 3%[1.06 µM]
O=C(c1cccc(Cl)c1)N1CCN(Cc2nnnn2C2CC2)CC1 | 3% | -3%
CN(C)c1cccc(Nc2nc3ccccc3nc2NS(=O)(=O)c2cccs2)c1 | 0% | 7%

Remaining list, next part:
canonical_smiles | StopGo FLuc | StopGo RLuc
CC[N+](C)(CC)CCCOC(=O)C1(c2ccccc2)CCCC1 | -15% | -7%
Cc1cc(C)[nH]c(=S)n1 | 0% | -2%
Cc1ccc(-n2ncc(C(=O)N3CCN(C4CCCCC4)CC3)c2C2CCN(C(=O)OC(C)(C)C)CC2)cc1 | -8% | -11%
Cn1c(=O)c2c(ncn2CC(=O)c2cccc(C(F)(F)F)c2)n(C)c1=O | 9% | -2%
CCC1CN(C(=O)N2CCC(C(=O)NCc3ccc(C)o3)CC2)c2ccccc2O1 (centres undefined) | -21% | 8%
CCCNc1nc2ccccc2nc1C(=O)Nc1ccc(OC)cc1 | 11% | -2%
COc1ccc(C2=CC(c3ccc(Cl)cc3)n3nnnc3N2)c(OC)c1 (centres undefined) | 12% | 5%
CCCSc1nc2c(c(=O)n(C)c(=O)n2C)n1Cc1ccccc1Cl | 7% | -6%

Additional structures follow.
canonical_smiles | StopGo FLuc | StopGo RLuc
CCN(CC)C(=O)CSc1nc2ccccc2c(=O)n1CCc1cccs1 | 6% | 7%
COc1ccc2c(c1)CC(C(=O)NCCCN1CCN(c3ccc(F)cc3)CC1)CO2 (centres undefined) | 5% | -1%
Cc1nc2c(c(C)c1CCC(=O)NCc1ccc(Cl)cc1)c(=O)n(C)c(=O)n2C | 0% | -12%
CCC(Sc1nc2c(sc3ccccc32)c(=O)n1CCCC(=O)NC1CCCC1)C(=O)Nc1cccc(OC)c1 (centres undefined) | 13% | -9%
Cc1ccc(C(=O)NCC(c2cccs2)S(=O)(=O)c2cccs2)cc1 (centres undefined) | u | u
CCNC(=S)NNC(=O)C(C)C | -1% | 7%
COC(=O)c1ccc(OC(=O)CC23CC4CC(CC(C4)C2)C3)cc1 | 40%[activator] | 26%
CNc1oc(-c2ccccc2C)nc1S(=O)(=O)c1ccc(F)cc1 | 19% | 109%[activator]

Entries from the list above with a CF3 group:
canonical_smiles | StopGo FLuc | StopGo RLuc
O=C(Nc1ccc(Cl)c(C(F)(F)F)c1)/C(=C/c1ccc(F)cc1)c1ccc(-c2ccccc2)cc1 | 7% | 7%
Cn1c(=O)c2c(ncn2CC(=O)c2cccc(C(F)(F)F)c2)n(C)c1=O | 9% | -2%

Next entries.
canonical_smiles | StopGo FLuc | StopGo RLuc
Cc1cc(=O)oc2cc(OCC(=O)N3CCCC3)c(Cl)cc12 | -2% | -11%
O=C(NCc1ccco1)c1ccc(C#Cc2ccccc2)cc1 | 174%[activator] | 74%[activator]
CC(C)(C)c1ccc2c(c1)OCCOCCOCCOc1cc(C(C)(C)C)ccc1OCCOCCOCCO2 | u | 28µM*
Cc1ccc(OCc2nnc(NC(=O)Nc3ccccc3F)s2)c(C)c1 | 12% | 5%
COc1ccc(N2CCN(c3nc4ccc(C)cc4n4nnnc34)CC2)cc1 | -12% | 7%
O=C(NCCc1c[nH]c2ccccc12)c1ccc(Cl)cc1 | 237%[activator] | 25%
COc1ccccc1OCC(=O)N(C)Cc1nc(-c2cccc(C)c2)no1 | -7% | -11%
Cc1ccc(-c2cc(C(=O)Nc3nnc(C)s3)c3ccccc3n2)cc1 | 10% | -5%

(more compounds)
canonical_smiles | StopGo FLuc | StopGo RLuc
Brc1ccc(CSc2c[nH]c3ccccc23)cc1 | 128%[activator] | 21%
CS(=O)(=O)CCN1CCN(c2ccccc2O)CC1 | 19% | 5%
CCN(c1ccccc1)S(=O)(=O)c1ccc(C(=O)OC2CCCCC2=O)cc1 (centres undefined) | 34%[activator] | 9%
O=C1c2ccccc2NC(c2cnn(-c3ccccc3)n2)N1c1ccccc1 (centres undefined) | 2% | 36%[activator]
CC(C)C(NC(=O)c1cccc(S(=O)(=O)N(C)C)c1)c1ccc2c(c1)OCCCO2 (centres undefined) | 18% | 79%[activator]
O=C(NCC(c1ccccc1)c1ccccc1)c1cc2ccccc2[nH]1 | 108%[activator] | -8%
O=C(NC1Cc2ccccc2C1)c1ccccc1F | 202%[activator] | 28%
CCCNC(=O)c1ccc2c(c1)nc(C)n2-c1cccc(C)c1 | 1% | -8%

(continued)
canonical_smiles | StopGo FLuc | StopGo RLuc
CCCCCc1ccc(-c2ccc(C34CCC(CC)(CC3)CC4)cc2)nc1 | 13% | 8%
CCN(Cc1ccccc1)C(=O)CN1C(=O)COc2ccc(S(=O)(=O)NC3CCCC3)cc21 | -25% | 76%[activator]
O=C(NCc1cccnc1OCc1ccccc1)Nc1nnc(C2CC2)s1 | u | u
O=C(Nc1ccc(OC(F)(F)F)cc1)C1CCCN(S(=O)(=O)c2ccc(Br)s2)C1 (centres undefined) | -16% | 13%
COc1ccc(-n2cc(C(=O)NCc3ccc(Cl)cc3)c3ccccc3c2=O)cc1 | -11% | -4%
OCC#CC[N+]1(CC#Cc2ccc(C#CC[N+]3(CC#CCO)CCCCC3)cc2)CCCCC1 | 10% | 8%
CCN(CC)CCNCc1ccc(C)s1 | 5% | -4%
CCOc1cc(/C=C2/NC(=O)NC2=O)ccc1OCC(=O)O | 5% | 10%

New compounds follow
canonical_smiles | StopGo FLuc | StopGo RLuc
CCC(C)c1ccc2oc(-c3ccc(NC(=O)c4cc5ccccc5o4)cc3)nc2c1 (centres undefined) | 5% | -4%
COc1ccc(NC(=O)CCc2nc3c(C)nn(-c4ccc(C)cc4)c3n(C)c2=O)c(OC)c1 | -8% | -9%
O=C(Nc1ccccc1F)C(Cc1ccccc1)n1cccc1 (centres undefined) | 0% | -2%
Cc1c(Cl)cccc1NC(=O)Cn1cc2c(n1)CCCC2 | 1% | 4%
O=C(Cn1ccnc1[N+](=O)[O-])NCc1ccccc1 | 27% | 23%
Cc1ccc(OCCn2c(CN3CCOCC3)nc3scc(-c4cccs4)c3c2=O)cc1 | -1% | 7%
Cc1ccc(C)c(C(C)NC(=O)CC23CC4CC(CC(C4)C2)C3)c1 (centres undefined) | 17% | 8%
CC1CCC(NC(=O)c2csc3c2CCC(C)C3)CC1 (centres undefined) | 95%[activator] | 10%

Some of these compounds in order of molar mass, descending:
canonical_smiles | StopGo FLuc | StopGo RLuc
CCC(C)c1ccc2oc(-c3ccc(NC(=O)c4cc5ccccc5o4)cc3)nc2c1 (centres undefined) | 5% | -4%
Cc1ccc(C)c(C(C)NC(=O)CC23CC4CC(CC(C4)C2)C3)c1 (centres undefined) | 17% | 8%
Cc1c(Cl)cccc1NC(=O)Cn1cc2c(n1)CCCC2 | 1% | 4%
CC1CCC(NC(=O)c2csc3c2CCC(C)C3)CC1 (centres undefined) | 95%[activator] | 10%
O=C(Cn1ccnc1[N+](=O)[O-])NCc1ccccc1 | 27% | 23%

2 entries from above, set out differently.
Cc1c(Cl)cccc1NC(=O)Cn1cc2c(n1)CCCC2
  StopGo FLuc: 1%
  StopGo RLuc: 4%

O=C(Cn1ccnc1[N+](=O)[O-])NCc1ccccc1
  StopGo FLuc: 27%
  StopGo RLuc: 23%

Further results follow.
canonical_smiles | StopGo FLuc | StopGo RLuc
O=C(Nc1cc(Cl)ccc1Cl)c1cc(S(=O)(=O)NCCc2ccccc2)ccc1F | 23% | 233%[activator]
CCOC(=O)C1CCN(Cc2cn3c(-c4ccc(OC)cc4)nnc3s2)CC1 | 25% | 18%
COc1cccc(CN2C(=O)C3(SCC(=O)N3c3ccc(C(C)C)cc3)c3ccccc32)c1 (centres undefined) | -13% | 2%
COc1ccc(CC(=O)N(Cc2cccs2)C2CCS(=O)(=O)C2)cc1 (centres undefined) | -17% | -11%
CC(NC(=O)c1cc2c(=O)n3ccccc3nc2n(C(C)C)c1=N)c1ccccc1 (centres undefined) | -13% | -13%
Cn1c(=O)n(C)c2cc(Sc3ccccc3Cl)c(NC(=O)C(C)(C)C)cc21 | -2% | -2%
Cc1ccccc1OCc1nnc(SCc2cc(=O)c3cc(F)ccc3[nH]2)n1C | -21% | -18%
COc1ccc(-c2noc3ncnc(N4CCC(C(=O)NCCN5CCCCC5)CC4)c23)cc1 | 1% | 4%

Following part.
canonical_smiles | StopGo FLuc | StopGo RLuc
O=C(CSc1nnc2ccc(-c3ccc4c(c3)OCO4)nn12)NCc1ccccc1Cl | -2% | -2%
Cc1cc(N2CCN(S(=O)(=O)c3ccc(Cl)c(C(F)(F)F)c3)CC2)nc(C(C)C)n1 | 7% | -4%
CCC(=O)Oc1ccc2c(C)c(Cc3ccccc3)c(=O)oc2c1C | 0% | 64%[activator]
CCc1ccc(C(=O)NCc2ccc(N3CCCN(C)CC3)nc2)o1 | -6% | -6%
CCOC(=O)COc1ccc2c(=O)c(-c3ccccc3OC)c(C(F)(F)F)oc2c1 | 1% | -3%
COc1ccc2nc(NC(=O)c3nc(S(=O)(=O)Cc4ccc(C)cc4)ncc3Cl)sc2c1 | 20% | 14%
c1ccc(CNCc2ccco2)cc1 | 2% | 12%
O=P1(NCCCl)OCCCN1CCCl (centres undefined) | -15% | -11%
Cn1cnc2c1c(=O)n(CC(=O)NCc1ccccc1Cl)c(=O)n2C | 18% | -12%

Not all compounds are listed, so the mix of outcomes need not match the whole.
